gsp antagonist: qHTS for Antagonists of gsp, the Etiologic Mutation Responsible for Fibrous Dysplasia/McCune-Albright Syndrome: qHTS | gsp-mutant cells, cAMP HTRF, 30 min; control for the full effect not named in the record | Potency, µM (titrated, usually from 76.9 µM), for inactives: at the highest dose activity change, negative = inhibition, most hits filed as inhibitors | hit rate 0.4% among 340,000 | AID 624288, 2012; active = falling curve of any shape with a large fitted effect; inconclusive = falling curve, mostly with a smaller effect; inactive = flat or rising curve; cell line not stated here;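 note: intracellular cAMP measured with PDE inhibitor Ro 20-1724 present during compound exposure; potency is the fitted concentration of half-maximal effect; % is set by controls: 0 for no effect and ±100 for the full control effect; nearly all actives have a fitted effect of over 65% in size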
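G418-selected cells were plated in DMEM/10% FBS for 16-24 h at 37C, then treated with compounds plus the PDE inhibitor […] (300 uM solution added) for 30 min at 37C. Intracellular cAMP was measured by HTRF after 30 min lysis at room temperature.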
gsp ag: qHTS for Agonist of gsp, the Etiologic Mutation Responsible for Fibrous Dysplasia/McCune-Albright Syndrome: qHTS. gsp mutant cells, cAMP HTRF, 30 min; control for the full effect not named in the record. Potency, µM (top dose mostly 76.9 µM), for the others: at the top dose activation (cAMP increase), usual class: activators. hit rate 0.13% among 340,000. AID 624287, 2012; active = well fitted activation curve with a large enough effect; inconclusive = small, poorly fitted or top-dose-only effect, or another doubt; inactive = no such curve, though single readings can be large or run the other way; cell line not stated here;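 note: phosphodiesterase inhibitor Ro 20-1724 added with compounds to block cAMP breakdown; potency is the fitted concentration of half-maximal effect; nearly all actives have a fitted effect of over 60% in size; about a fifth of the inactives were tested at one dose only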
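Cells in DMEM/10% FBS with G418 were pretreated with compounds in DMSO plus […] (300 uM stock) for 30 min at 37C. cAMP was measured by HTRF (cAMP-d2 plus anti-cAMP antibody-K) after 30 min at room temperature.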
Menin-MLL FL inh: qHTS Assay for Inhibitors Targeting the Menin-MLL Interaction in MLL Related Leukemias: Competition With Fluorescein Labeled MLL-derived Peptide | Fluorescence polarization, fluorescein-MLL peptide displacement from menin | FP activity change, % at 61.4 µM | 290,000 tested, under 10 active | AID 1766, 2009; inconclusive = falling polarisation curve, or a change in total fluorescence; inactive = total fluorescence flat and polarisation flat or rising; no compound was filed as active; the % refers to the polarisation; negative = inhibition;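 note: % of control where 0% means no effect; inhibitors lower the polarisation; unlabelled MLL peptide was the positive control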
TRPML1 ag: qHTS for Agonists of the Human Mucolipin Transient Receptor Potential 1 (TRPML1); Mucolipin-1 (Homo sapiens), Q9GZU1; hit rate 0.12% among 410,000; activation, % (concentration not given with the values); TRPML1-expressing cells, Ca2+ dye fluorescence, FDSS; host cell line not named in the record; reference of the full effect not given here; AID 624414, 2012; in the data active = activation above about 50%; inconclusive = about 30% to 50%; inactive = below about 30%; note: 0% is about no effect; the text of the record puts the active cut at 80%
Target sequence (Q9GZU1 whole entry, looked up): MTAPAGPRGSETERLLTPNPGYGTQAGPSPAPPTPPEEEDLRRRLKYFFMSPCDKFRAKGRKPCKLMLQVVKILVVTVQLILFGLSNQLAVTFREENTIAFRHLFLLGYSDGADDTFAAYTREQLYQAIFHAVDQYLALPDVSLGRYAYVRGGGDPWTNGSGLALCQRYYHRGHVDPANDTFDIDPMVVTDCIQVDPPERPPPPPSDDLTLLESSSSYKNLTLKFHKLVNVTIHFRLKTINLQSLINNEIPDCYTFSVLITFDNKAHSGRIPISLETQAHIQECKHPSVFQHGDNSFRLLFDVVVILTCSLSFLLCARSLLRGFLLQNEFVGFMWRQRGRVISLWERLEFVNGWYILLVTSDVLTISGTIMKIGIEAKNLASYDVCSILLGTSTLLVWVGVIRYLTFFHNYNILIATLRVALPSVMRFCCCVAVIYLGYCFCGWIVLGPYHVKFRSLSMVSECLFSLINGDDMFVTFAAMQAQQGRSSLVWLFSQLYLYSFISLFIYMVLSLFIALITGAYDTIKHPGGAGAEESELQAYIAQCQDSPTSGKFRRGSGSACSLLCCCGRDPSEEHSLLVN
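Kinetic FDSS Ca2+ read in Tet-induced TRPML1-DL cells (ABD Ca8 dye plus quencher, 45-90 min RT loading): baseline, then compound, then 110 s agonist window; EC80 agonist 54-4 at 4uM final added afterwards for a 110 s antagonist window.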
TRPML1 inh: qHTS for Inhibitors of the Human Mucolipin Transient Receptor Potential 1 (TRPML1); Mucolipin-1 (Homo sapiens), Q9GZU1; TRPML1-inducible cells, Ca2+ dye fluorescence, FDSS; active compounds read low; inhibition of EC80 agonist-evoked calcium signal; activity change, negative = inhibition, % (concentration not given with the values); hit rate 0.02% among 390,000; in the data active means activity change below about -50%; inconclusive means about -30% to -50%; inactive means above about -30%;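 note: stimulus is agonist 54-4 at its EC80 concentration; % is set by controls: 0 for no effect and ±100 for the full control effect; the text of the record puts the active cut at -80%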
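Tet-induced TRPML1-DL cells loaded with Ca8 no-wash calcium dye were read kinetically on FDSS. Compound addition was followed by EC80 agonist 54-4 (4 uM final); inhibition was read over 110 s.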
ClpP mod: qHTS Assay for Activators of ClpP; purified B. subtilis ClpP, FRET peptide cleavage, 20 min; AID 651965, 2013; Potency, µM (series often up to 57.5 µM), inactives show at the top dose activity change, negative = active; ATP-dependent Clp protease proteolytic subunit (Bacillus subtilis (strain 168)), P80244; hit rate 1.9% among 340,000; active = well fitted falling curve with a large enough effect; inconclusive = small, poorly fitted or top-dose-only effect; inactive = no such curve, though single readings can be large or run the other way; note: potency is the fitted concentration of half-maximal effect; the source files actives as falling curves though it sought activators and does not explain the sign; nearly all actives have a fitted effect of over 65% in size; many hits overshoot -100%
Target sequence (P80244 whole entry, looked up): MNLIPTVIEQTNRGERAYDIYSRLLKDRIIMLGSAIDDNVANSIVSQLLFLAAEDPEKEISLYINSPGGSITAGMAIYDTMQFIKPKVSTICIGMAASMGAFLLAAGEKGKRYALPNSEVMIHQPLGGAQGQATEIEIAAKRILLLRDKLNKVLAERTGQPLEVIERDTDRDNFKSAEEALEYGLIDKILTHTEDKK
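FRET quenching reversal measured ClpP activation: 10 microg/mL B. subtilis ClpP at pH 8 with the FRET-FV decapeptide, read at 430 nm after 320 nm excitation. The 20-min minus 0-min signal was scaled between DMSO/no-enzyme wells and ADEP (5.8 microM final).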
* marks the source's active call; other numbers are inactive results; ? = inconclusive; . = not tested or not shown; [ ] = remark or other dose.

Second line of a record: TRPML1 ag	Menin-MLL FL inh	TRPML1 inh	gsp antagonist	ClpP mod	gsp ag
- COP(=O)(CC(=O)c1ccccc1)CC(=O)c1ccccc1
 : -0.1	-2.3	-5.7	-8.0%	.	-0.8%
- COc1ccc(S(=O)(=O)N(C)C[C@H]2Oc3ccc(NS(=O)(=O)c4ccc(F)cc4)cc3C(=O)N([C@H](C)CO)C[C@@H]2C)cc1
 : -0.6	.	8.7	-16.9%	-0.2%	-56.0%[inhibitor]
- COc1cccc(-c2nc(C(=O)NCCCN3CCOCC3)cc3c2[nH]c2ccccc23)c1
 : .	-0.9	.	?	5.2%	.
- S=C1NCN(Cc2ccco2)CN1c1ccccc1
 : -0.3	-2.1	12.2	2.5%	1.2%	4.5%[15.4 µM]
- Cc1cc(NC(=O)CSc2nc3ccccc3s2)no1
 : 0.3	-1.2	-24.7	-1.0%	1.5%	-5.6%
- COc1cccc(NC(=O)c2ccccc2F)c1
 : 0.1	.	8.6	3.7%	0.8%	.
- COc1ccc(-c2noc(CCC(=O)NCCN3CCN(c4ccccc4F)CC3)n2)cc1
 : -0.1	1.3	-1.8	-7.7%	1.0%	-2.1%
- COc1cnn(-c2ccccc2)c(=O)c1OC
 : -0.1	-2.2	-6.3	-7.5%	0.1%	9.4%[15.4 µM]
- COc1ccc(NC(=O)CSc2nc3ncccc3[nH]2)cc1OC
 : -0.1	-1.5	0.8	3.7%	1.4%	9.8%
- O=C(CSc1ccc2nnc(-c3ccccn3)n2n1)Nc1ccccc1C(F)(F)F
 : -0.5	-2.6	2.6	12.0%	?	?
- COc1ccc(OC)c(/C=C2\Oc3cc(OCC(=O)N4CCC[C@H]4C(=O)O)ccc3C2=O)c1
 : .	?	.	12.1%	0.1%	.
- Cc1nn(CC(=O)Nc2c(C)n(C)n(-c3ccccc3)c2=O)c(C)c1[N+](=O)[O-]
 : 0.0	3.6	9.7	8.0%	1.4%	8.1%[15.4 µM]
- CCOc1ncccc1C(=O)OCC(=O)Nc1ccc2c(c1)OCCO2
 : 0.1	.	-13.8	8.8%	-0.5%	9.2%
- Cc1nc2ccc(NC(=O)CSc3ccccc3)cc2s1
 : 1.1	.	-1.0	6.3%	0.2%	-6.3%
- O=C(NC(=S)Nc1ccccc1Cl)c1cnn2c(C(F)(F)F)cc(C(F)(F)F)nc12
 : 1.5	-0.7	2.9	-4.4%	-3.0%	-18.2%

Quoted from the listing:
For gsp antagonist, Cc1nn(CC(=O)Nc2c(C)n(C)n(-c3ccccc3)c2=O)c(C)c1[N+](=O)[O-] is listed with 8.0%
For Menin-MLL FL inh, COc1cccc(-c2nc(C(=O)NCCCN3CCOCC3)cc3c2[nH]c2ccccc23)c1 is listed with -0.9

A draw from above in order of molar mass, largest number first.
Second line of a record: TRPML1 ag	Menin-MLL FL inh	TRPML1 inh	gsp antagonist	ClpP mod	gsp ag
- COc1ccc(S(=O)(=O)N(C)C[C@H]2Oc3ccc(NS(=O)(=O)c4ccc(F)cc4)cc3C(=O)N([C@H](C)CO)C[C@@H]2C)cc1
 : -0.6	.	8.7	-16.9%	-0.2%	-56.0%[inhibitor]
- O=C(CSc1ccc2nnc(-c3ccccn3)n2n1)Nc1ccccc1C(F)(F)F
 : -0.5	-2.6	2.6	12.0%	?	?
- COP(=O)(CC(=O)c1ccccc1)CC(=O)c1ccccc1
 : -0.1	-2.3	-5.7	-8.0%	.	-0.8%

Next part
Second line of a record: TRPML1 ag	Menin-MLL FL inh	TRPML1 inh	gsp antagonist	ClpP mod	gsp ag
- O=S(=O)(Nc1ccc2c(c1)OCCO2)c1cccs1
 : -0.5	0.7	-4.4	1.3%	0.6%	7.6%
- CCCN1C(C(=O)c2ccccc2)=C(OC(=O)c2ccc(F)cc2)c2ccccc2S1(=O)=O
 : -0.7	.	-4.7	.	-0.5%	.
- CC(C)NC(=O)c1ccc(Cn2c(SCC(N)=O)nc3ccccc3c2=O)cc1
 : 0.1	.	-15.4	.	-2.8%	.
- CCCc1cc(=O)[nH]c(Nc2cc(C)ccc2OC)n1
 : -1.3	.	-15.2	.	4.1%	.
- CC(C)c1ccc(NC(=O)CN2C(=O)CCc3cc(S(=O)(=O)N4CCOCC4)ccc32)cc1
 : -0.7	.	-4.1	.	-0.8%	.
- CC(=O)Oc1cc2c(C(=O)NCc3ccncc3)c(C)oc2c2ccccc12
 : -0.7	4.1	3.9	-5.6%	-3.6%	-1.5%
- O=C(Nc1cc([N+](=O)[O-])ccc1O)c1cccc(NC(=O)c2ccco2)c1
 : -0.4	2.6	6.7	-10.8%	.	-13.3%
- O=C(Oc1ccc(-c2csnn2)cc1)c1cccs1
 : -0.7	0.4	4.0	13.1%	1.5%	-3.1%[15.4 µM]
- COC(=O)[C@@]12CCCN1[C@H](c1ccc(-c3cccc(Cl)c3)c(OC)c1)[C@H]1C(=O)N(C)C(=O)[C@H]12
 : -0.3	.	32.9	?	2.2%	-7.5%
- O=P(CCc1ccccc1)(c1ccccc1)c1ccccc1
 : -0.4	.	-4.1	0.7%	.	-3.9%
- O=C(C1CCN(c2ncnc3c2sc2cccc(F)c23)CC1)N1CCOCC1
 : -0.7	0.8	8.5	?	-27.3%	-2.3%
- Cc1ccc(CNC(=O)c2cnn(-c3ccc(F)cc3F)c2C2CCN(C(=O)OC(C)(C)C)CC2)cc1
 : 2.1	.	-15.4	.	1.4%	.
- CC(CCc1ccccc1)NC(=O)C(=O)NCCc1ccccc1 (configuration not stated)
 : 0.1	3.7	13.0	2.6%	-0.2%	-19.0%
- O=C(c1cc(Cl)c(=O)n(Cc2ccccc2)c1)N1CCOCC1
 : -0.3	0.0	-5.6	0.4%	-11.7%	-4.7%
- Cc1cc(C)c(S(=O)(=O)N2CC=C(c3ccccc3)CC2)c(C)c1
 : 1.9	.	19.1	-25.9%	-2.5%	13.0%
- O=C(Nc1cccc(F)c1)c1ccc(S(=O)(=O)N2CCOCC2)cc1
 : -0.7	-1.3	37.5	-3.6%	-4.3%	-1.4%
- CC(C)n1c(=O)[nH]c2cc(C(=O)Nc3ccccc3)ccc21
 : 0.6	-1.6	35.5	-2.9%	.	-7.7%
- O=C(Cn1ncc2c3ccccc3n(Cc3ccc(Cl)cc3)c2c1=O)NCCCN1CCCC1=O
 : 0.2	-0.9	4.4	7.6%	3.6%	-3.6%
- COc1ccccc1C(=O)NCCC(=O)NCC(c1ccco1)N1CCCC1 (configuration not stated)
 : 1.4	.	7.3	13.0%	-3.2%	7.8%
- CN(C)S(=O)(=O)c1ccc(C(=O)NCCSc2c(-c3ccc(Cl)cc3)[nH]c3ccccc23)cc1
 : 0.1	.	18.3	.	-1.1%	.
- CC(C)(C)NC(=O)NC(=O)CSc1nncs1
 : 0.2	0.0	27.2	7.6%	-2.2%	-2.4%
- COc1cc(NC(=O)c2ccc3c(SCC(=O)O)c4c(nc3c2)CCC4)cc(OC)c1OC
 : 0.2	.	20.9	-2.6%	-2.1%	18.8%
- COc1cc(C(=O)Nc2sc(C)c(C)c2C(=O)O)cc(OC)c1OC
 : 0.5	2.5	-4.9	3.5%	.	-1.2%[15.4 µM]
- O=C(Nc1nc2ccccc2n1Cc1ccccc1)c1ccco1
 : 0.7	0.7	19.1	-16.9%	-15.3%	-3.5%
- O=C(Nc1ccc2c(c1)OCO2)C1CCN(C(=O)c2ccc(Cl)cc2)CC1
 : -0.2	0.1	-3.4	5.3%	-0.9%	18.3%
- COc1cccc(/C=N/Nc2ccc(C(=O)O)cc2)c1O
 : 3.4	1.3	30.0	?	-1.8%	-35.9%[inhibitor]
- CCCN(CC1CC1)C(=O)CSc1ncnc2sc(C)c(C)c12
 : -0.9	-0.7	0.2	-5.7%	-4.8%	1.7%
- CC1(c2cccc(Br)c2)NC(=O)N(CC(=O)Nc2ccc3c(c2)OCCO3)C1=O (configuration not stated)
 : -0.5	.	-16.3	-8.7%	0.5%	-12.0%
- O=C(NC(=S)Nc1ccc(N2CCOCC2)cc1)c1cccs1
 : 0.0	-3.0	-3.4	-4.6%	-0.1%	-11.0%
- CCN(CC)C(=O)CSc1nnc(-c2ccco2)n1Cc1ccco1
 : 0.3	4.6	14.7	3.9%	-0.4%	-2.0%
- CCOC(=O)c1ccc(NC(=O)NCc2ccncc2)cc1
 : -0.4	-1.9	0.3	-14.5%	-2.8%	-62.4%[inhibitor]
- C=C(C)CSc1nc2sc3c(c2c(=O)n1-c1ccc(OC)cc1)CCN(C)C3
 : 2.0	-1.2	15.8	-3.6%	-20.0%	8.9%
- CCC(=O)NCCNC(=O)c1c(SC)nsc1SC
 : -1.1	2.7	-2.1	10.1%	-0.7%	-38.6%[inhibitor]
- CC1=CC2=NC(=O)CC(C)(C(=O)N(CC(=O)NC3CCCC3)c3ccccc3C)N2C=C1 (configuration not stated)
 : .	-2.8	.	11.8%	4.3%	-37.3%[inhibitor]
- CCOC(=O)C1(Cc2ccc(OC)cc2)CCN(C(=O)Cc2cccnc2)CC1
 : 1.0	2.2	15.4	-3.1%	-3.1%	-48.7%[inhibitor]
- Cc1ccc(C(=O)OCC(=O)N2CCCCCC2)c(O)c1
 : -0.5	.	-6.9	4.9%	-4.7%	-3.0%
- Cc1ccc(-c2nnc(Nc3ccccc3)c3ccccc23)cc1S(=O)(=O)NCC1CCCO1 (configuration not stated)
 : -0.3	0.7	1.6	-5.5%	0.8%	-15.2%
- CC(NC(=O)c1ccc(F)cc1F)C1CC2CCC1C2 (configuration not stated)
 : 0.8	-5.0	-15.1	-2.8%	.	46.1%
- CCN(CC)S(=O)(=O)c1ccc(N=N/C(C(C)=O)=C(/C)O)cc1
 : -1.1	-2.2	11.6	3.2%	-0.9%	-5.6%
- O=C(Nc1ccc(S(=O)(=O)Nc2ccccn2)cc1)c1cccc([N+](=O)[O-])c1
 : 0.6	0.8	6.2	12.2%	-1.8%	-7.7%
- COc1cc(NC(=O)Cn2c(=O)n(Cc3ccccc3)c(=O)c3oc4ccccc4c32)cc(OC)c1
 : 0.5	.	19.3	.	?	.

High-throughput results as filed in PubChem.

Compounds as they come; 2.1% or so of the library scored in one or more.
